High-throughput results from PubChem BioAssay.
Mtb MenB inh – M. tuberculosis MenB inhibitors, primary screen, biochemical, absorbance; 1,4-dihydroxy-2-naphthoyl-CoA synthase (Mycobacterium tuberculosis (strain ATCC 25618 / …; MenB enzyme assay, absorbance read-out; some hits fall short of the stated cut; inhibition, %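 (about 12 µg/mL by stock and volumes)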; hit rate 0.43% among 100,000;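 active = mean of two replicates above 30%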;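 also: 0% = no compound and 100% = wells with inactive enzyme; the first replicate is given; strong numbers were not always called active; inactives centre near -10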
Target sequence (P9WNP5 whole entry, looked up): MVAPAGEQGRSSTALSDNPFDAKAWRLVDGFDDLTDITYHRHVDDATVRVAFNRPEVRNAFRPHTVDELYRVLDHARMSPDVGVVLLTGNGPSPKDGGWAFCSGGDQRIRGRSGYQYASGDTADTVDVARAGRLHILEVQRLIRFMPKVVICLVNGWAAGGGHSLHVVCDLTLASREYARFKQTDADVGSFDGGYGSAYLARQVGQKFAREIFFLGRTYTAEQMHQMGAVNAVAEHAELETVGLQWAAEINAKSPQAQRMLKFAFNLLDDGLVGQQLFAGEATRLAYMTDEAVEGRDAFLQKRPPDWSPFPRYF
Polio RdRp inh – poliovirus RdRp elongation inhibitors, primary screen, biochemical, fluorescence polarization, total intensity; Genome polyprotein (Poliovirus type 1 (strain Mahoney)), P03300; poliovirus polymerase elongation; active compounds read low; % elongation, % (compound at 16.7 µg/mL); hit rate 0.66% among 150,000; AID 588519, 2011; in the data active = % elongation below about 90%; also: some results filed as inactive read as strong as hits
Target sequence (P03300 1749-2209 limits assumed): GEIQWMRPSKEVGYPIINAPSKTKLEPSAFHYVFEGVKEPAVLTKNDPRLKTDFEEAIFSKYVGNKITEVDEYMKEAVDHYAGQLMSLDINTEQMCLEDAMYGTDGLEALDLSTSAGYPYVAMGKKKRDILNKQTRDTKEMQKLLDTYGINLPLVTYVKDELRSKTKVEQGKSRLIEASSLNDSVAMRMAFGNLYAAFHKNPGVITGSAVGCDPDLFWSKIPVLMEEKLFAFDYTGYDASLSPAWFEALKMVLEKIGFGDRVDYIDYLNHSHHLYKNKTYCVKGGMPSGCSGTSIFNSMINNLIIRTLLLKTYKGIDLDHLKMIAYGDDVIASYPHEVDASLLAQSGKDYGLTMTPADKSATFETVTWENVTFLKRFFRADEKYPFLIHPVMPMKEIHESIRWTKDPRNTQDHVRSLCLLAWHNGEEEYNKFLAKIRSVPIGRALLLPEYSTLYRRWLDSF
MbtI inh – MbtI salicylate synthase inhibitors, primary screen, biochemical, fluorescence intensity. inhibition, %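 (about 17 µg/mL by stock and volumes)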. hit rate 0.89% among 100,000. purified MbtI enzyme, fluorescence intensity read-out;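 active = above 50% in both replicates, above 80% if mildly self-fluorescent; inactive = the rest, strongly fluorescent compounds included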;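 also: 0% = mean of negative and 100% = mean of positive controls; one replicate is shown; some compounds called inactive have numbers as strong as hits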
Polio RdRp inh intensity – second read-out of Polio RdRp inh, no call of its own (marks repeat the call); % elongation; measured here: total intensity read-out; formula for this scale not given here;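 total fluorescence in place of polarization; lower means less elongation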
* marks the source's active call; other numbers are inactive results; i = inactive; / = no result given; & = joins results of further samples.

smiles	MbtI inh	Mtb MenB inh	Polio RdRp inh	Polio RdRp inh intensity
COc1cccc2cc(-c3csc(C)n3)c(=O)oc12	-31	-11	100	104
CC(=O)Nc1ccc2c(c1)nc1n2CCN(C2CCCCC2)C1	-8	17	104	107
O=C(Nc1ccccc1C(=O)OCC(=O)N1CCCc2ccccc21)c1ccco1	27	-24	100	95
COC(=O)Cc1[nH]n(-c2ccc(F)cc2)c(=O)c1C(C)=NCCc1cnc[nH]1	10	-125	102	106
CCC(CC)NC(=O)C(C)Nc1nc2ccccc2s1 (configuration not stated)	-14	-17	104	104
COc1ccccc1-c1cc(=O)c2ccccc2o1	/	-20	101	100
O=C(CNCC1(N2CCOCC2)CCCCC1)Nc1ccc(Cl)cc1	-8	-6	103	110
FC(F)(F)c1cccc(NC2=NCCCS2)c1	-2	/	103	109
COC(=O)c1ccc(C2NC(=O)NC(=O)N2)cc1	7	-5	105	106
Cc1ccc(NCc2ccccc2)cc1	-23	0	106	99
Cc1noc(/C=C/N2CCOCC2)c1S(=O)(=O)N(C)CCc1ccc(Cl)cc1	22	-11	102	99
O=C(CSc1nnc(-c2ccc3c(c2)OCO3)o1)OCCN1C(=O)c2ccccc2C1=O	-3	-21	104	110
O=C(Nc1ccc(Br)cc1F)C1CCC1	-3	/	99	94
Nc1nnc(SCCN2C(=O)c3ccccc3S2(=O)=O)s1	6	5	100	97
CC1CCCN(C(=O)C(Cc2ccccc2)NS(=O)(=O)c2ccc3c(c2)CCC(=O)N3)C1 (configuration not stated)	-2	-12	103	110
Cc1cc(Nc2ccc(Cl)cc2)n2c(nc3ccccc32)c1C#N	-6	-13	99	106
C=C(C)CNC(=S)Nc1scc(-c2ccsc2)c1C(=O)OCC	/	-36	108	112
COc1ccccc1CN1CCN(Cc2ccccc2OC)CC1	-13	-16	102	104
O=C(Oc1ccc2ccccc2c1CN1CCOCC1)c1cc(=O)[nH]c2ccccc12	97	-17	101	106
Cc1ccc2nc(SCC(=O)NCc3ccco3)c(C)cc2c1	17	-31	104	102
Cc1ccc(C(=O)c2c(NC(=O)c3ccncc3)sc3c2CCCC3)cc1	/	-11	103	109
Cc1nn(C)c(C)c1/C=C/C(=O)C(C)(C)C	/	6	103	105
CC1NC(=S)N(Cc2ccccc2)C1=O (configuration not stated)	37	-1	104	107
CSc1nnc2c(n1)OC(C)N(C(C)=O)c1ccccc1-2 (configuration not stated)	1	-50	100	104
COc1ccc2ncc(C(=O)c3ccc(C)c(C)c3)c(N3CCOCC3)c2c1	1	-14	100	103
Cc1nn2c(=O)cc(CSc3nc4ccccc4[nH]3)nc2s1	12	-17	102	95
O=C(O)CC(c1ccc(Cl)cc1)N1C(=O)CCC1=O (configuration not stated)	/	0	105	104
Cc1ccc(C=Nc2cccc3nsnc23)c(O)c1	13	-94	101	101
O=C(NNc1nc2cc3c(cc2s1)OCO3)c1ccccc1	34	-31	101	101
N#Cc1ccc(OCC(O)CNC23CC4CC(CC(C4)C2)C3)cc1 (configuration not stated)	12	-8	104	110
COc1ccc(CCN(C)C(=O)c2cncc(Br)c2)cc1OC	-10	-23	104	94
Cc1ccc(-[n+]2cc(Cl)on2)cc1	2	/	102	103
C=CCn1c(=O)c2ccccc2n2c(SC3CCOC3=O)nnc12 (configuration not stated)	19	-4	100	108
C=CCn1c(CCn2c3ccccc3c3ccccc32)n[nH]c1=S	-1	-42	100	99
CCN(C(=O)Cn1cnc2ccccc21)c1ccccc1	-16	-28	104	103
Clc1ccc(-c2ncnn2-c2ccc(Br)cc2)cc1	0	12	100	104
C=CCNC(=S)NNc1nc(NCC)nc(NCC)n1	8	-17	106	103
COc1ccccc1NC(=O)Nc1cc(C(C)(C)C)nn1C	5	-10	103	102
Cc1cc(C)n(CCCNC(=O)/C=C/c2c(Cl)nc3ccccn23)n1	-35	-8	96	133
O=C(CCn1nc(-c2ccc(Cl)cc2)ccc1=O)NC1CCCCC1	-11	-14	101	104

Full records, quoted from the list.
O=C(Nc1ccc(Br)cc1F)C1CCC1 as listed: MbtI inh = -3; Mtb MenB inh = /; Polio RdRp inh = 99; Polio RdRp inh intensity = 94
COC(=O)c1ccc(C2NC(=O)NC(=O)N2)cc1 as listed: MbtI inh = 7; Mtb MenB inh = -5; Polio RdRp inh = 105; Polio RdRp inh intensity = 106

Continued:
smiles	MbtI inh	Mtb MenB inh	Polio RdRp inh	Polio RdRp inh intensity
CC(Sc1ccc(Br)c2cccc(C(=O)O)c12)C(=O)O (configuration not stated)	-3	-2	101	108
COc1cccc(-c2noc(-c3ccc(Br)o3)n2)c1	-7	2	101	105
CCOc1cc(CNCc2cccnc2)cc(Cl)c1OCC(N)=O	-7	3	99	101
COc1ccc(-c2noc(CC(=O)N3CCCCCC3)n2)cc1	2	-11	105	104
OCCN1CN(Cc2cccc(Cl)c2)Cn2c1nc1ccccc12	-9	-15	111	105
O=C(Oc1ccc2c(c1)oc(=O)c1ccccc12)c1ccco1	9	-16	104	101
O=C(COc1ncnc2ccccc12)NCCC1=CCCCC1	5	/	102	96
CCOC(=O)c1ccc(NC(=O)c2cc(C)nn2-c2ccccc2)cc1	6	-15	103	102
c1cc(C23CC4CC(CC(C4)C2)C3)ccc1CN1CCOCC1	/	-1	99	99
CNC(=O)c1cc(C#N)c(SC)s1	5	1	102	102
CN(C)C(CNC(=O)c1ccc(S(=O)(=O)NCc2ccco2)cc1)c1ccccc1 (configuration not stated)	-6	-26	105	99
COc1cc(/C=C/C(=O)NCCn2ccc3ccccc32)cc(OC)c1OC	-17	-19	101	104
O=C(Nc1ccc(Oc2ccccc2)cc1)c1ccc(Cn2c(=O)[nH]c3ccsc3c2=O)cc1	7	-18	101	105
CC(C)CNCC1COc2ccccc2O1 (configuration not stated)	-14	-2	103	107
COc1ccc(-c2nnc(NC(=O)Cc3ccccc3)o2)cc1	7	-27	105	102
CN(C)c1ccc(CC(=O)c2nc3ccccc3s2)cc1	103	/	98	103
NC(=O)c1ccccc1NC(=O)CCCOc1ccc(Cl)cc1Cl	/	-23	108	109
Cc1onc(-c2c(Cl)cccc2Cl)c1C(=O)NC1CSC(C)SC1 (configuration not stated)	-4	-14	109	108
O=C(NCCc1cn2c(n1)SCC2)NC1CCCCC1	0	-5	99	106
O=C(NCc1nc2ccccc2n1Cc1ccccc1)c1cccs1	-10	/	102	107
O=C(CCc1nc2ccccc2c(=O)[nH]1)Nc1cccc(N2CCCC2=O)c1	-4	-16	104	95
CCCCNC(=O)c1ccc(S(=O)(=O)N(C)C)cc1	-1	1	103	101
O=C(Nc1cccc(Cl)c1)c1cc2cc3ccc(Cl)cc3nc2o1	-4	-18	103	104
NNC(=O)c1cc(-c2ccccc2)n[nH]1	-6&-5	-13&-10	104&103	104&104
NNC(=O)C1C(C(=O)NN)C1c1ccccc1 (configuration not stated)	-11	-3	108	109
O=C(Cc1ccccc1)N/N=C/c1ccco1	36	-13	102	101
CC1(NC(=O)c2ccc(C#N)cc2)CCS(=O)(=O)C1 (configuration not stated)	3	11	104	101
O=C(CN1CCN(C(=O)c2ccco2)CC1)Nc1ccccc1C(F)(F)F	-3	-65	101	104
CC(=O)Nc1cc(C)ccc1C	/	-1	102	102
O=C(CNS(=O)(=O)c1ccccc1)Oc1ccc2ccc(=O)oc2c1	/	-1	102	117
COc1ccc(C2CC(=O)N(CC(=O)Nc3c(C)cc(C)cc3C)c3ccccc3S2)cc1OC (configuration not stated)	34	-22	103	102
Nc1nonc1C(=O)OCC(=O)c1ccccc1	/	5	104	100
CC(C)(C)c1nnc2sc(-c3cccs3)nn12	41	13	101	97
CN(CCOC(=O)c1ccccc1)c1cc(C(F)(F)F)nc2ccccc12	0	-12	105	110
O=C(O)CCC12CC3CC(CC(O)(C3)C1)C2	-4	-3	105	107
CCC(=O)O[C@H]1CCC2C3CCc4cc(O)ccc4C3CC[C@@]21C (some centres not stated)	-13	4	102	100
COc1ccc(NC(=O)c2cnc(SCC(=O)Nc3cc(C)on3)n(C)c2=O)cc1	3	16	100	99
COc1ccc(C(=O)Cc2ccccc2OC(=O)c2ccccc2)cc1	-8	/	101	98
CCc1cccc(NC(=O)NC2CC(=O)N(C3CCCC3)C2)c1 (configuration not stated)	-9	-4	103	107
CCc1nc2cc3sc(CC)nc3cc2s1	10	5	103	102
CCCC1C(C#N)=C(N)OC2=C1C(=O)CCC2 (configuration not stated)	/	-5	103	111
CCCCCn1c(SCC(=O)N2CCC(C(F)(F)F)CC2)n[nH]c1=O	-6	-16	102	94
CC(C)CC(C(=O)Nc1ccc(S(N)(=O)=O)cc1)N1C(=O)C2C3C=CC(C3)C2C1=O (configuration not stated)	-8	2	101	107
CC(C)(C)NC(=O)c1ccc(COCC(F)(F)F)o1	0	-2	99	101
Nc1ccc(OCc2ccccc2Cl)cc1	15	-25	105	100
Cn1c(SCc2nc3ccccc3o2)nnc1C(F)(F)F	3	3	104	102
Cc1ccc(OC(=O)c2ccccc2)c(-n2nc3ccccc3n2)c1	20	-23	104	104
O=C(CCN1C(=O)/C(=C\c2ccco2)SC1=S)NC1CCCC1	1	-36	104	102
COc1ccccc1-n1c(SCc2csc(NC(C)=O)n2)nnc1-c1cccs1	-5	-21	106	111
O=C(CN(Cc1ccco1)C(=O)Cn1nnc(-c2cccs2)n1)NCc1ccccc1	-6	-18	103	101

Carrying on.
smiles	MbtI inh	Mtb MenB inh	Polio RdRp inh	Polio RdRp inh intensity
COC(=O)c1c(C)[nH]c(C(=O)C(C)n2nnc(-c3ccc(C)cc3)n2)c1C (configuration not stated)	5	-16	104	109
N#Cc1ccc(OCC(=O)Nc2cc(-c3ccccc3)nn2-c2ccccc2)cc1	-8	-4	108	114
O=C1COc2ccc(C(=O)COC(=O)[C@@H]3CCCN3S(=O)(=O)c3ccc(Cl)cc3)cc2N1	7	-19	105	107
CCNc1nc2c(C)cccc2s1	-5	/	103	99
O=C1c2ccccc2C(=O)N1Cc1ccccn1	-3	-14	102	102
O=C(NCc1cccnc1)c1cn(C2CC2)c2cc(N3CCN(C(=O)c4cccc(Cl)c4)CC3)c(F)cc2c1=O	i	-32	104	98
Cc1ccc(NC(=O)CN(C)C(=O)Cn2ncc(Cl)c(Cl)c2=O)cc1	0	-31	94	89
CCc1ccc(NC(=O)CC(NCc2ccccc2)C(=O)O)cc1 (configuration not stated)	-9	-5	102	101
O=C(NCc1ccc(Cl)cc1)c1cc2ccccc2oc1=O	/	3	104	111
CC(C)(c1ccccc1)c1cc(CN2CCOCC2)c(O)c(CN2CCOCC2)c1	-2	-17	104	108
Cc1scc(CSCC(=O)O)c1C	-14	-5	105	106
O=C(O)c1cnc(-c2ccc(Cl)cc2)nc1	-1	10	103	106
CC(C)n1nc(C(=O)OCc2nc(N)nc(Nc3ccccc3)n2)c2ccccc2c1=O	7	3	101	108
CCCCN1CCC(N)=NC1=O	2	-18	102	96
COc1ccc(Nc2nc(-c3ccccc3)cs2)cc1	7	/	102	106
Cc1nc(-c2ccc(-c3cccs3)s2)sc1-c1ccnn1C(=O)c1cccs1	2	4	99	115
CCCOc1ccc(-c2cnc(=S)[nH]c2N)cc1	10	-40	104	108
O=C(O)c1ccc(N/C=C/C(=O)c2ccccc2)cc1	-4	-421	102	104
COC(=O)c1ccccc1NC(=O)c1c(C)nc2ccccn12	/	2	100	105
Nc1csc2nc(=O)cnn12	22	-116	91	101
CC(C)CCNC(=O)C1=CC=CN2CCS(=O)(=O)N=C12	76	-21	104	107
Cc1ccc(NC(=O)CN(C)C(=O)Cn2c(=O)cnc3ccccc32)cc1	32	-4	104	106
CCOC(=O)c1c(N)sc2c(OCC)c(Br)ccc12	/	-4	105	103
O=C(CSC1=NCCS1)OCN1C(=O)c2ccccc2C1=O	22	38*	104	109
CN(CC1COc2ccccc2O1)c1nc(CN2CCOCC2)nc2sc3c(c12)CCCC3 (configuration not stated)	1	-24	100	107
C=CCOc1ccc2c(C)c(CCCC)c(=O)oc2c1	/	-27	100	104
Cc1cc(=S)n2c([nH]c3ccccc32)c1C#N	90	-96	98	106
O=S(=O)(NCCOc1nnnn1-c1ccccc1)c1ccc(-n2cnnn2)cc1	-17	-3	103	102
Cc1ccccc1OCC(=O)Nc1cc(Sc2ccccn2)cc(S(=O)(=O)c2ccccc2)c1	/	-13	104	105
CCCc1nc(SCC(=O)c2ccc(Cl)cc2)nc(OC(=O)N(CC)CC)c1C	0	4	100	96
CCN(C(=O)Cc1noc2ccccc12)c1ccccc1	-8	15	101	104
COc1ccc(O)c(/C=N/N=C/c2cc(OC)ccc2O)c1	-92	-13	101	108
CCSc1nc2c(c(=O)[nH]c(=O)n2C)n1CC	98*	-1	98	100
